MT1-MMP act inh – blockers of MT1-MMP proenzyme processing, primary screen, HT1080 RFP-PRO-GFP cells, GFP/RFP fluorescence; 360,000 compounds, 0.061% hits; Matrix metalloproteinase-14 (Homo sapiens), P50281; GFP/RFP ratio fluorescence, overnight; percent of plate control window, DMSO zero; GFP/RFP ratio change, % at 20 µM;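 active = GFP/RFP ratio change of at least 30% with cell ATP level not reduced by more than half and red fluorescence within 50% of control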; note: strong numbers were not always called active
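Test system: HT1080 RFP-PRO-GFP cells; Benchmarks: DMSO and RFP-L50D-GFP cell wells; Timing: cells overnight before dosing, compound overnight, 37 °C, 5% CO2; Compound: one 20 µM compound dose with 1% DMSO; Read-out: GFP/RFP fluorescence ratio.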
PABP polyA inh – PABP poly(A) RNA binding inhibitors, primary screen, biochemical, fluorescence polarization, uHTS | inhibition, % at 35 µM | Polyadenylate-binding protein 1 (Homo sapiens), P11940 | 290,000 compounds, 1% hits | AID 2014, 2009;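 active = 50% or more with normal probe brightness, or confirmed in later tests; inconclusive = above 50% with abnormal brightness, or retests that disagree; inactive = below 50% or failed in later tests; about a fifth of its hits are not listed in these tables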;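 note: calls also rest on retests at 20 µM and on dose response follow-up; controls were probe without protein and protein plus probe with vehicle; some compounds called inactive have numbers as strong as hits; many hits fall short of the cut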
Target sequence (P11940 whole entry, looked up): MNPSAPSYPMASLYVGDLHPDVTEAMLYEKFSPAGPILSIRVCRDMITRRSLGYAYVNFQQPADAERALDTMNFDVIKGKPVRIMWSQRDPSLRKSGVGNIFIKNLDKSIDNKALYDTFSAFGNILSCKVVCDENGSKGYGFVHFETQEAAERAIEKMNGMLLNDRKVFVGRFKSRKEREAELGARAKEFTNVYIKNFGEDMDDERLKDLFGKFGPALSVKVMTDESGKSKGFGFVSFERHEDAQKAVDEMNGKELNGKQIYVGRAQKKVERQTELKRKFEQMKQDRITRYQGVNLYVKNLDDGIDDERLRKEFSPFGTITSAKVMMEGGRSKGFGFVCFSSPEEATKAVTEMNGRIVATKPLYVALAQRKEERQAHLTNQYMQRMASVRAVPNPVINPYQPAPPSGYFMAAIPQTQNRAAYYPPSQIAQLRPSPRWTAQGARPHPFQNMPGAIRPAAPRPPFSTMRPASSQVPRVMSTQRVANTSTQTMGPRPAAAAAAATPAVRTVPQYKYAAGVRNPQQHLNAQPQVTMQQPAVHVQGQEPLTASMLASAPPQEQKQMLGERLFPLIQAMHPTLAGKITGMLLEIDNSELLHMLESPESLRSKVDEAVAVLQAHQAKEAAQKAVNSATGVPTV
HIV Env fusion – inhibitors of HIV-1 Env-driven cell-cell fusion, primary screen, HeLa-JRFL effector, CEM21 target cells, luciferase. inhibition, % at 12.3 µM. 360,000 compounds, 1.1% hits. AID 651610, 2012;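 active = mean replicate inhibition score of at least 50 and every replicate individually at or above 50; inconclusive = only one of the two criteria met; inactive = mean below 50 and not all replicates reaching 50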;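 note: 0% = plate neutral controls and 100% = maraviroc near 300 nM; one replicate is shown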
eIF4H inh – human eIF4H binding inhibitors, primary screen, translation initiation inhibitor project, biochemical, uHTS, fluorescence polarization; inhibition, % at 35 µM; 290,000 compounds, 0.94% hits; eIF4H fluorescence polarization binding assay; AID 2012, 2009; Eukaryotic translation initiation factor 4H (Homo sapiens), Q15056;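 active = 50% or more with normal probe brightness, or confirmed in later tests; inconclusive = above 50% with abnormal brightness, or retests that disagree; inactive = below 50% or failed in later tests; about a fifth of its hits are not listed in these tables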;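 note: calls also rest on retests at 20 µM and on dose response follow-up; 0% = protein and probe with vehicle and 100% = probe without protein; strong numbers were not always called active; many hits fall short of the cut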
Rce1 inh – yeast Rce1p protease inhibitors, primary screen, biochemical, fluorescence, cell-free homogeneous | CAAX prenyl protease 2 (Saccharomyces cerevisiae (strain ATCC 204508 / S288c)), Q03530 | yeast membranes, quenched prenylated peptide cleavage fluorescence | calls only | 290,000 compounds, 0.27% hits | AID 2563, 2010;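 active = fall in fluorescence gain of 50% or more versus controls, with final raw signal at or below 3038400; inconclusive = same 50% fall but final raw signal above 3038400; inactive = fall in fluorescence gain under 50%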;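 note: plate controls were neutral control wells for no effect and wells lacking membranes for full effect; tested at 10 µM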
Target sequence (Q03530 whole entry, looked up): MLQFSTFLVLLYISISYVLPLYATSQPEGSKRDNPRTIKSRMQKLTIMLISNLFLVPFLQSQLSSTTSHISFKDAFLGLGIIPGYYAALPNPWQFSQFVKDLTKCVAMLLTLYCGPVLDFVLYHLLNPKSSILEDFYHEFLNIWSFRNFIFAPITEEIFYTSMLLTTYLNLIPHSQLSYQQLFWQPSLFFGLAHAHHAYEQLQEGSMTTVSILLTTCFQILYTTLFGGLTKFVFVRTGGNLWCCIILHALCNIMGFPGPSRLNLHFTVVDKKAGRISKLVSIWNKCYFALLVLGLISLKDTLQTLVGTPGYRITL
CSC inhib – cancer stem cell viability inhibitors, primary screen, luminescence; cancer stem cell-like cells viability; inhibition, % at 7.5 µM; 300,000 compounds, 1.1% hits; AID 2717, 2010;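 active = mean at 75% or more and at least half the replicates too; inconclusive = mean and replicates disagree; tested in HMLE shEcad cells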;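 note: 0% = median of negative and 100% = median of positive control wells; the first replicate is given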
Yeast UUG start – modulators of yeast start codon fidelity, primary screen, whole organism, S. cerevisiae, single point, plate reader; AID 602363, 2012; 350,000 compounds, 0.13% hits; activity score, % at 18.7 µM; S. cerevisiae UUG-firefly luciferase reporter, luminescence/redox ratio;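 active = replicate mean at a twofold rise or more, about +100% in these data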;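 note: firefly luciferase made from a UUG start codon reports start codon fidelity; reporter light over untreated wells divided by growth signal over untreated wells; some hits fall short of that in this replicate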
eIF4H inh retest – recorded beside eIF4H inh, whose call it bears; inhibition, %; compound at 20 µM; confirmation average;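 mean of two retest wells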
PABP polyA inh retest – also measured in PABP polyA inh; calls as there; inhibition, %; compound at 20 µM; confirmation repeats;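 mean of two retest wells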
MT1-MMP act inh RFP – also measured in MT1-MMP act inh; calls as there; RFP signal change, %; measured here: RFP expression control read;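 0 = vehicle wells; hits needed this value within 50% of zero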
* marks the source's active call; other numbers are inactive results; i = inactive; ? = inconclusive; / = no result given; & = joins results of further samples. This is a random part of the collection; any-hit rate near 3%.

SMILES | MT1-MMP act inh | MT1-MMP act inh RFP | PABP polyA inh | HIV Env fusion | eIF4H inh | Rce1 inh | CSC inhib | Yeast UUG start | others
CC(C)CCN(Cc1ccco1)S(=O)(=O)c1ccc(-c2ccc(=O)[nH]n2)s1 | -7 | -3 | 9 | 13 | -1 | i | 0 | -2
N#CC1(NC(=O)COc2cccnc2[N+](=O)[O-])CCCCC1 | 17 | 2 | / | / | / | / | -17 | -5
O=C(NC(=O)c1ccccc1O)c1ccc2c(c1)CCO2 | -1 | -5 | -8 | -25 | -5 | i | 8 | -10
CCOc1ccc(NC(=O)CN(C)C(=O)c2ccc3c(c2)S(=O)(=O)N=C2CCCCCN23)cc1OCC | 0 | 3 | / | 11 | / | / | / | -9
Cc1ccc(C(=O)N2N=C(CC(C)C)CC2(O)C(F)(F)F)o1 (stereo unspecified) | 0 | -1 | -2 | -1 | 8 | i | -2 | /
Cc1cccc(/N=C/c2c(O)c3ccccc3oc2=O)n1 | -5 | -4 | -7 | / | -2 | i | 22 | -36
CCOc1ccccc1C(=O)N[C@H](C(=O)Nc1cc(S(=O)(=O)N(C)C)ccc1OC)C(C)C | -1 | -3 | -4 | 12 | 14 | i | 2 | /
COc1cccc(NC(=O)CN(C)C(=O)CCNC(=O)c2ccc(Br)cc2)c1 | 4 | -5 | / | / | / | i | -6 | /
Cc1ccc(S(=O)(=O)Nc2c(O)c3ccccc3oc2=O)cc1C | 0 | 0 | 2 | 15 | -8 | i | / | -6
CCc1c(O)nc(SCC(=O)Nc2nc3ccccc3s2)n(C2CCCCC2)c1=O | 7 | 5 | 20 | 5 | 4 | i | / | -5
COc1ccc(NC(=O)COC(=O)c2ccccc2SCC(=O)N2CCCC2)cc1 | 0 | -4 | / | -8 | / | i | -1 | /
Cc1csc(NC(=O)CCCC(=O)O)c1-c1nc2ccccc2s1 | -4 | -8 | 21 | -86 | -16 | i | 2 | /
Cc1ccc(S(=O)(=O)Nc2ccccc2C(=O)N2CCCCCC2)cc1 | -2 | -1 | 12 | 18 | 1 | i | 1 | -9
Cc1cccc(OCc2nnc(SCC(=O)N3CCCC3)o2)c1 | 2 | 5 | 0 | -6 | 1 | i | -2 | -12
COCC(C)NC(=S)Nc1ccccc1[N+](=O)[O-] (stereo unspecified) | 4 | -1 | -5 | 2 | -4 | i | 2 | -6
CCOC(=O)N1CCN(c2ccc(C(=O)CC)cc2F)CC1 | 10 | 0 | 4 | / | -5 | i | -16 | /
Cc1ccc(NC(=O)COC(=O)CCCC2=NS(=O)(=O)c3ccccc3N2)cc1C | -7 | 3 | / | 5 | / | i | 3 | 23
CC(C)NC(=O)CCNS(=O)(=O)c1ccc(Br)cc1 | 4 | 2 | -6 | 9 | -14 | i | -3 | -3
CCOC(=O)CNC(=O)CSc1nc(-c2ccccc2)ns1 | -5 | 1 | -11 | 4 | -6 | i | -15 | /
COc1cccc(-c2cnc3c(NC=O)cc(-c4ccc(O)c(OC)c4)cn23)c1 | 3 | -4 | / | 24 | / | / | / | 0
CNC(=O)CSCc1c(F)cccc1Cl | 5 | 5 | 0 | -21 | 6 | i | -14 | -12
CCOC(=O)N1CCN(C(=O)Nc2ccc3nc(C)sc3c2)CC1 | -2 | 0 | -7 | / | -13 | i | -9 | -9
CCN(CC)CCNS(=O)(=O)c1ccc(C(=O)NN)cc1 | 4 | 5 | -3 | -14 | -9 | i | 6 | /
COc1cc(C(=O)NC2CCN(Cc3ccccc3)CC2)cc(Cl)c1OC(C)C | 7 | -2 | 3 | 10 | -6 | i | 14 | 4
Cn1cc(/C=C2\SC(=O)NC2=S)c2ccccc21 | -8 | 6 | ? | 30 | ? | i | / | /
CCN1CCc2c(OCC(=O)Nc3ccccc3)cccc2C1=O | -2 | 1 | -2 | 1 | 0 | i | -2 | -18
CCN(C(=O)CCc1nc(-c2ccccc2F)no1)c1cc(OC)ccc1OC | -6 | -9 | 2 | / | -2 | / | / | /
COc1ccccc1NS(=O)(=O)c1cccc(C(=O)NCC(c2ccco2)N2CCCC2)c1 (stereo unspecified) | 2 | -6 | / | / | / | / | -12 | -13
O=C(NCc1nnc2c(C(F)(F)F)cc(Cl)cn12)c1ccco1 | 3 | 7 | -4 | 7 | -1 | i | -9 | -18
Cc1ccc(NC(=O)CC2SC(=Nc3ccc(O)cc3)NC2=O)cc1 (stereo unspecified) | -1 | -2 | 15 | 2 | 0 | i | -1 | /

Fetched by compound from above (2):
SMILES | MT1-MMP act inh | MT1-MMP act inh RFP | PABP polyA inh | HIV Env fusion | eIF4H inh | Rce1 inh | CSC inhib | Yeast UUG start | others
COc1cccc(-c2cnc3c(NC=O)cc(-c4ccc(O)c(OC)c4)cn23)c1 | 3 | -4 | / | 24 | / | / | / | 0
COc1ccccc1NS(=O)(=O)c1cccc(C(=O)NCC(c2ccco2)N2CCCC2)c1 (stereo unspecified) | 2 | -6 | / | / | / | / | -12 | -13

The list goes on.
SMILES | MT1-MMP act inh | MT1-MMP act inh RFP | PABP polyA inh | HIV Env fusion | eIF4H inh | Rce1 inh | CSC inhib | Yeast UUG start | others
O=C(O)CCCNS(=O)(=O)c1cccs1 | 4 | 4 | 18 | / | 12 | i | -3 | /
COC(=O)c1sccc1NC(=O)CSc1ccccc1NS(=O)(=O)c1ccc(Cl)cc1 | -1 | -6 | 3 | -42 | -3 | i | 36 | -8
CCc1nc2ccc(C(=O)N(CC)CCN(C)C)cn2c1N(C)Cc1nccs1 | -4 | 6 | / | 1 | / | / | / | -11
OCCNC(=S)c1ccccc1 | -3 | 0 | 3 | -7 | 2 | i | 6 | /
O=C(Nc1cccc([N+](=O)[O-])c1)c1[nH]ncc1Cl | -3 | 0 | -3 | / | -7 | i | 4 | -6
COc1ccc(CNC(=O)CCn2c(=O)oc3ccccc32)cc1 | 4 | 3 | -9 | 9 | -1 | i | -2 | 3
C=CCn1c2ccccc2c2nnc(SCC(=O)Nc3c(C)n(C)n(-c4ccccc4)c3=O)nc21 | 5 | -3 | -1 | / | -6 | / | / | 1
CC12CNCC(C)(CN(C3(O)C(=O)Nc4ccc(Br)cc43)C1)C2=O (stereo unspecified) | -2 | 7 | -2 | 9 | 4 | i | 12 | /
CCOP(=O)(c1ccc(N(C)C)cc1)C(O)c1ccccc1OC (stereo unspecified) | 2 | 5 | 0 | -3 | -2 | i | -10 | -5
CSc1ccc(C2C(C(=O)c3ccco3)=C(O)C(=O)N2c2nnc(SC)s2)cc1 (stereo unspecified) | -71 | 8 | ? | -27 | ? | i | -12 | -16
CC1CC(C)CN(CCCNC(=O)Cc2c(C(=O)O)n(C)c3ccccc23)C1 (stereo unspecified) | 2 | 3 | -6 | / | -1 | i | 5 | -18
CCOc1ccc(S(=O)(=O)N2CCN(C(=O)c3cc4ccccc4o3)CC2)cc1 | -1 | -10 | / | 44 | / | / | 2 | -8
C/C(=N/NC(=O)CNc1ccc(Cl)cc1C)c1ccc(C)cc1 | 1 | 7 | 9 | 12 | 8 | i | -13 | /
CC(C)Oc1ccc(C2C(C#N)=C(N)Oc3c2oc(CO)cc3=O)cc1 (stereo unspecified) | -6 | 3 | -8 | 15 | 43 | i | 0 | /
COc1ccc(CC(=O)OCC(=O)NNC(=O)c2ccccc2)cc1 | 11 | 2 | / | / | / | / | 10 | -8
CC(=O)Nc1cccc(/C(C)=N/NC(=O)c2cc(-c3ccncc3)nc3ccccc23)c1 | 1 | -1 | 1 | -9 | -4 | i | -5 | -31
c1ccc2[nH]c(-c3cscn3)nc2c1 | 2 | 6 | -5 | -22 | 0 | i | -1 | -12
CCOc1ccc2[nH]c(=O)c(CN(Cc3nnnn3Cc3ccccc3)CC3CCCO3)cc2c1 (stereo unspecified) | -4 | 3 | 54 | 0 | -11 | i | -3 | -1 | eIF4H inh retest=3;PABP polyA inh retest=2
CCN1CCc2c(sc(NC(=O)c3ccc4ccccc4c3)c2C(N)=O)C1 | -26 | 2 | ? | -79 | ? | i | 41 | -3
C[C@@H]1CN([C@@H](C)CO)C(=O)CCCn2nncc2CO[C@H]1CN(C)C(=O)Cc1ccccc1 | -1 | 1 | / | -19 | / | / | / | -12&12
O=C(COn1nnc2ccc(S(=O)(=O)N3CCOCC3)cc21)NCc1cccc(Cl)c1 | 1 | 1 | / | -30 | / | / | / | -17
CNC(=O)/C(=C\c1ccc2c(c1)OCO2)NC(=O)c1ccc(Br)cc1 | 0 | 2 | 5 | / | 8 | i | 0 | /
CCO[C@H]1OC(C(=O)NCc2ccccc2)=C[C@@H](c2ccccc2)[C@@H]1CCCO | -1 | -7 | 0 | -11 | 7 | i | -5 | -9
CC1Sc2ccccc2N(CC(=O)N(C(C)C)C(C)C)C1=O (stereo unspecified) | -5 | 2 | -6 | / | -11 | i | -1 | 2
CCc1nnc(NC(=O)CCC(=O)N2CCN(Cc3ccc(OC)c(F)c3)CC2)s1 | 6 | 0 | -6 | -3 | 12 | i | -11 | -11
N#CC1=C(N)OC2=C(C(=O)CCC2)C12CCC1(CC2)OCCO1 | -2 | 8 | 11 | -7 | 3 | i | / | -14
COc1ccccc1N1CC(C(=O)OCC(=O)c2ccc(F)cc2)CC1=O (stereo unspecified) | 0 | 1 | 7 | -303 | 3 | i | -14 | -4
CCOC(=O)N1CCN(S(=O)(=O)c2ccc(C(=O)Nc3sc4c(c3C#N)CCC4)cc2)CC1 | -1 | -6 | 6 | / | 2 | i | -4 | -15
COc1ccc(C(=O)NCC(=O)N/N=C/c2ccc([N+](=O)[O-])o2)cc1OC | 0 | -5 | 21 | -12 | 40 | i | -19 | /
Cc1cc(Cl)c(S(=O)(=O)N2CCSCC2)cc1OCC(=O)NC1CCCCC1 | -2 | -24 | -8 | 93* | 0 | i | -22 | -18
CNC(=S)N1N=C(c2ccc(C)cc2)CC1c1cc(OC)ccc1OC (stereo unspecified) | -5 | -4 | 3 | 1 | -11 | i | 44 | /
NC(=O)c1cc(S(=O)(=O)N2CCOCC2)ccc1Sc1ccccc1N | -1 | 3 | / | -10 | / | / | / | -1
COc1ccc(Cc2c(O)nc(SCC(C)C)[nH]c2=O)cc1 | 0 | 1 | -12 | -104 | -7 | i | -7 | -4
Cc1ccc2[nH]cc(CCNC(=O)C3CCCCC3)c2c1 | 0 | -11 | 0 | 13 | -6 | i | / | 3
O=C(CN1CCc2ccccc2C1)NCC(=O)Nc1ccc(F)cc1 | 2 | -1 | 0 | 2 | -7 | i | -7 | /
O=C(O)CNC(=S)N(Cc1ccccc1)Cc1cccnc1 | -2 | 3 | -4 | 9 | 9 | i | 0 | /
COc1ccc(Cl)cc1NC(=O)Nc1ccccc1SC | 0 | -1 | -6 | 11 | 1 | i | -7 | /
COc1ccc(OCC(=O)NNC(=O)C(=O)Nc2cc(OC)ccc2OC)cc1 | 2 | 1 | -5 | 3 | -6 | i | 13 | -2
CCC(C)c1ccc(NC(=O)COC(=O)c2nc3nccc(C)n3n2)cc1 (stereo unspecified) | 3 | 7 | -1 | 0 | -4 | i | -5 | /

From PubChem
